# Insulin prom inh: inhibitors of insulin promoter-driven GFP, primary screen, imaging, TRM-6 cells (human fetal islet line), eGFP reporter, cell count; reporter expression induced with tamoxifen; inhibition, % at 2 µM; 130,000 tested, 0.9% active; AID 1273, 2008;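 active means inhibition above the mean plus 3 SD, with well images judged a real hit on visual review, cut at about 60% in these data, passing the limit was not always enough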
# RGS16-Gao: modulators of RGS16 binding to Galphao, primary screen, biochemical, human proteins, multiplexed bead flow cytometry. 220,000 tested, 0.38% active. bead-based flow cytometry RGS16-Galphao binding, fluorescence; actives lie on both sides. binding response (% of control), % at 10 µM;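 active means below 25% or above 175%, edge rows of some plates excepted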;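 further: Galphao activated by GDP with aluminum fluoride before binding; 100% = wells without compound and 0% = beads without RGS; some results beyond the cut were filed as inactive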
# Target sequence (O15492 whole entry, looked up): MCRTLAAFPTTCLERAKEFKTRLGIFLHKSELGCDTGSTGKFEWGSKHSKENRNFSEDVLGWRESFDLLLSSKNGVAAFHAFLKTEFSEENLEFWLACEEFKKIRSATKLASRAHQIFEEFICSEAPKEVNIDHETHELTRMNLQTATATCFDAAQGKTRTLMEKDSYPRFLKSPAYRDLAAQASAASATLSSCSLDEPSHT
# Target sequence (P09471 whole entry, looked up): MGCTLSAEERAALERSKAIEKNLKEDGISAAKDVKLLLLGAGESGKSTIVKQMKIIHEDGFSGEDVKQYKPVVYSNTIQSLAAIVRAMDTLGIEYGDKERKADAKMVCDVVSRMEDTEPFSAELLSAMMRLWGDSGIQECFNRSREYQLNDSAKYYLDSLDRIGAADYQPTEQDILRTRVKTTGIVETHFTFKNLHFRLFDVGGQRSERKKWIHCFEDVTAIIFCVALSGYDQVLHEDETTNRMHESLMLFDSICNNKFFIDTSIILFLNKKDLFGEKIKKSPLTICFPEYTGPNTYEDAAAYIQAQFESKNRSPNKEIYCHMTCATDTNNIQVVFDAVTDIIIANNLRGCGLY
# HSV replic up: enhancers of HSV replication in host cells, fold increase, host cell viability | HSV replication augmentation in cells | maximum fold increase | 220,000 tested, 0.005% active;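 active means peak rise of 1.5-fold or more in the series; tested in PC3 cells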;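 further: first round at 10 µM; read as green reporter fluorescence; hits show the peak of a series up to 25 µM; 1 = signal of infected wells without compound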
# PKD1 kinase inh: inhibitors of human PKD1 kinase, biochemical, fluorescence polarization; AID 797, 2007; 200,000 tested, 0.056% active; inhibition, %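 (about 10 µM by stock and volumes)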; PKD1 kinase fluorescence polarization assay;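 active means inhibition of 50% or more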;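 further: controls were vehicle for no effect and a reference inhibitor for full effect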
# GALR2 agonist: GALR2 receptor agonists, primary screen, cell-based; Galanin receptor type 2 (Homo sapiens), O43603; GALR2-expressing cells, agonist activation read-out; activation, %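 (tested at 5 µM)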; 140,000 tested, 0.48% active; AID 803, 2007;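 active means above mean plus 3 SD of all compounds, about 5% in these data, not always enough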;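 further: 0% = vehicle buffer wells and 100% = reference agonist at full effect; tested in CHO reporter cells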
# Target sequence (O43603 whole entry, looked up): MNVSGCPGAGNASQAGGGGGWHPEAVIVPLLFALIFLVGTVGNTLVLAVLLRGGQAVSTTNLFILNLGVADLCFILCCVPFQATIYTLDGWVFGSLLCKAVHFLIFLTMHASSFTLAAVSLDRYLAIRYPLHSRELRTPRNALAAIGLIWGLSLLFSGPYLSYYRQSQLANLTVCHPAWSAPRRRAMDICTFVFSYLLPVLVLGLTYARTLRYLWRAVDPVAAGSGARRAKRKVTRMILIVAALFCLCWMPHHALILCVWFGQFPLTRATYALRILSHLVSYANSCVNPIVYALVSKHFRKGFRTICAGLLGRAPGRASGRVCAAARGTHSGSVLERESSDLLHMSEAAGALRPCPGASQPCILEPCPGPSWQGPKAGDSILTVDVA
# Insulin prom inh cell count: also measured in Insulin prom inh; calls as there; normalized cell count, %; measured here: cell count, toxicity; reference of the scale not given here;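 cells exposed to compound for 48 h; stained nuclei by imaging scaled within each plate; lower means fewer cells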
# HSV replic up primary fold: also measured in HSV replic up; calls as there; fold increase; compound at 10 µM; measured here: primary screen fold increase 10 uM; tested in PC3 cells;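 GFP signal in the first replicate; 1 = infected wells without compound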
# Starred values were filed as active, the others as inactive; i = inactive; nt = no result given.
SMILES,Insulin prom inh,Insulin prom inh cell count,RGS16-Gao,HSV replic up,HSV replic up primary fold,PKD1 kinase inh,GALR2 agonist
CCOC(=O)c1c(C)n(C)c2ccc(OC)c(NC(=O)CN3CCN(C(=O)c4ccco4)CC3)c12,31,126,100,i,0.89,3,1.1
CCn1c(C)c(P(c2ccccc2)c2ccccc2)[n+]2ccccc12,36,9,117,i,1,5,nt
CCNC(=O)COc1ccc(-c2ccccc2)cc1,-7,160,100,i,1,-7,-0.5
Cc1ccc(S(=O)(=O)NC(CC(=O)N2CCOCC2)c2ccco2)cc1 (centres undefined),nt,nt,111,i,1,10,-1.1
Cc1ccc(S(=O)(=O)N2CCN(CC(=O)N/N=C/c3cc([N+](=O)[O-])ccc3Cl)CC2)cc1,nt,nt,100,i,0.92,3,-0.8
Cc1cc(NC(=O)CSc2nnc(NC(=O)C3CC(=O)N(c4ccccc4C)C3)s2)no1 (centres undefined),-43,69,97,i,0.82,-16,0.0
Cc1ccc(-n2c(SCC3CNC(=O)O3)nnc2-c2ccccc2)cc1C (centres undefined),29,144,101,i,1.1,2,-0.5
O=C1CC(SCc2nc3ccccc3[nH]2)C(=O)N1c1ccc(F)c(Cl)c1 (centres undefined),-14,124,100,i,0.88,-4,0.0
O=C(O)CSCC(=O)Nc1cccc(C(F)(F)F)c1,57,63,103,i,0.81,-1,-1.9
O=C1NC2(CCc3ccccc3C2)C(=O)N1CCOc1cccc(Cl)c1 (centres undefined),47,140,67,i,0.93,-11,-1.6
CC1CC1C(=O)OCC(=O)Nc1ccc2[nH]c(=O)[nH]c2c1 (centres undefined),18,78,99,i,1,6,nt
NC(=O)c1ccsc1NC(=O)c1ccc2c(c1)CCCC2,-51,107,89,i,0.77,-3,-0.8
CCOC(=O)c1ccc(NC(=O)N(CC)CC)cc1,40,125,108,i,0.94,-1,-1.4
CC(C)OC(=O)CSc1nnc(Cc2ccccc2)n1Cc1ccco1,-41,167,98,i,0.76,-4,-1.7
COCCn1c(SCC(=O)Nc2ccccc2OC)nc2ccccc21,nt,nt,101,i,0.96,1,nt
O=C(OCC(=O)N1CCN(C(=O)c2ccco2)CC1)c1cc(S(=O)(=O)Nc2ccc(Cl)cc2)ccc1O,nt,nt,95,i,0.91,-7,nt
CCOC(=O)c1oc2ccc(S(=O)(=O)n3nc(-c4ccc(C)cc4)cc3N)cc2c1C,nt,nt,100,i,0.9,11,-1.3
COc1ccc(NC(=O)C2CCCN2S(=O)(=O)c2ccc3c(c2)CCC(=O)N3)cc1Cl (centres undefined),nt,nt,101,i,1,-12,-0.5
COc1ccc(-n2ncc3c(N4CCN(Cc5ccccc5)CC4)ncnc32)cc1,nt,nt,103,i,0.78,-2,nt
CCOC(=O)C1(CC2CC2)CCN(C(=O)c2cc(C)nc3ccc(CC)cc23)CC1,nt,nt,114,i,0.93,-4,nt
Cc1nc(COC(=O)c2ccc(S(=O)(=O)N3CCCC3)cc2)cs1,nt,nt,94,i,1,0,-0.3
O=C(Cn1cnc2ccccc2c1=O)Nc1nnc(C2CC2)s1,nt,nt,110,nt,nt,-6,-2.3
Cn1c(=O)c2c(nc(-n3ccnc3)n2Cc2ccc([N+](=O)[O-])cc2)n(C)c1=O,nt,nt,98,i,0.9,-7,0.0
O=C(CCNc1ccc(Br)cc1)c1cccc([N+](=O)[O-])c1,nt,nt,97,i,0.94,3,nt
O=c1nc2ccccc2c2n1CC(CN1CCN(Cc3ccccc3)CC1)N2 (centres undefined),-9,137,100,i,0.97,1,-1.5

# Other structures:
SMILES,Insulin prom inh,Insulin prom inh cell count,RGS16-Gao,HSV replic up,HSV replic up primary fold,PKD1 kinase inh,GALR2 agonist
COC(=O)COc1ccc2c(-c3cccc([N+](=O)[O-])c3)cc(=O)oc2c1,nt,nt,113,i,0.97,4,-1.8
CN(CCn1ccnc1)C(=O)CC1C(=O)NCCN1Cc1ccccc1C(F)(F)F (centres undefined),-25,90,101,i,1,-5,nt
CCOC(=O)c1[nH]c(C)c(C(=O)Nc2cccc(Cl)c2C)c1C,nt,nt,104,i,0.7,-7,-1.4
Cc1ccc(S(=O)(=O)NNC(=O)c2c(O)c3ccccc3[nH]c2=O)cc1,nt,nt,99,i,0.72,nt,nt
O=C(Nc1cccnc1)C1CCCN(S(=O)(=O)c2ccccc2)C1 (centres undefined),-9,174,99,i,0.98,-5,-1.5
C1=C(CCNc2nnnn2-c2ccccc2)CCCC1,57,118,104,i,0.93,-16,-1.2
O=C(NCCc1nc2ccccc2[nH]1)c1cc([N+](=O)[O-])cc([N+](=O)[O-])c1,nt,nt,100,i,0.79,-4,-0.7
CCOc1ccc(N(CC(=O)Nc2cccc(N(C)S(C)(=O)=O)c2)S(=O)(=O)c2ccccc2)cc1,-8,141,105,i,0.91,-6,0.3
Cc1cc(C)n2nc(N)c(N=Nc3ccc(Cl)cc3)c2n1,15,135,97,i,0.89,-6,-0.3
CN1CCN(CC(O)COc2ccc(C34CC5CC(CC(C5)C3)C4)cc2)CC1 (centres undefined),nt,nt,104,i,0.71,-7,nt
COc1ccc(/C=C(\C#N)C(=O)NC2CCS(=O)(=O)C2)cc1OC (centres undefined),27,124,100,i,0.98,-9,-0.9
O=C(CSc1ncccc1-c1nc2ccccc2[nH]1)N1CCCCC1,11,67,118,i,1,15,-1.4
Cc1ccc2c(N)c(C)ccc2c1,-6,82,99,i,0.85,-9,0.9
CCOC(=O)C1CCCN(CCC(=O)Nc2ccc3c(c2)CCC3)C1 (centres undefined),nt,nt,110,i,0.77,-13,-1.1
O=C(COC(=O)c1ccc(Br)o1)Nc1ncc(Cl)cc1Cl,21,129,106,i,0.82,12,nt
CCCc1nnc(NC(=O)COC(=O)c2cc(C)nc3ccccc23)s1,nt,nt,101,i,0.9,0,-2.1
Nc1nnc(/C=C/c2ccccc2Cl)s1,nt,nt,100,i,0.92,nt,nt
COc1cccc(C(=O)NNC(=O)Cc2ccc(Cl)cc2)c1,59,78,83,i,0.88,-11,-1.7
COc1ccc(S(=O)(=O)N2CCOCC2)cc1NC(=O)CSc1nnc(C2CC2)n1N,nt,nt,99,i,0.85,-3,nt
O=C1OC(N2CCN(C(=O)c3ccco3)CC2)c2ccccc21 (centres undefined),36,118,107,i,1,-12,-1.8
CC1Cn2c(CCc3ccccc3)nnc2S1 (centres undefined),-61,169,105,i,0.88,-2,-1.1
O=C(NCCNC(=O)c1ccco1)c1cccc(F)c1,nt,nt,102,i,1.1,-14,-0.8
Nc1oc2ccc(F)cc2c(=O)c1C=O,-40,96,94,i,0.89,2,-1.9
CN(C)c1ccc(C(=S)Nc2ccccc2)cc1,13,101,105,i,0.88,3,-1.5
CCN(CC)S(=O)(=O)c1cccc(C(=O)N[C@H](C(=O)NCc2ccccc2F)C(C)C)c1,3,92,301,i,0.92,-4,-2.7

# Entries from the list above that contain an aryl methoxy group:
SMILES,Insulin prom inh,Insulin prom inh cell count,RGS16-Gao,HSV replic up,HSV replic up primary fold,PKD1 kinase inh,GALR2 agonist
CCOC(=O)c1c(C)n(C)c2ccc(OC)c(NC(=O)CN3CCN(C(=O)c4ccco4)CC3)c12,31,126,100,i,0.89,3,1.1
COCCn1c(SCC(=O)Nc2ccccc2OC)nc2ccccc21,nt,nt,101,i,0.96,1,nt
COc1ccc(NC(=O)C2CCCN2S(=O)(=O)c2ccc3c(c2)CCC(=O)N3)cc1Cl (centres undefined),nt,nt,101,i,1,-12,-0.5
COc1ccc(-n2ncc3c(N4CCN(Cc5ccccc5)CC4)ncnc32)cc1,nt,nt,103,i,0.78,-2,nt
COc1ccc(/C=C(\C#N)C(=O)NC2CCS(=O)(=O)C2)cc1OC (centres undefined),27,124,100,i,0.98,-9,-0.9
COc1cccc(C(=O)NNC(=O)Cc2ccc(Cl)cc2)c1,59,78,83,i,0.88,-11,-1.7
COc1ccc(S(=O)(=O)N2CCOCC2)cc1NC(=O)CSc1nnc(C2CC2)n1N,nt,nt,99,i,0.85,-3,nt

# Part of the list above in order of molar mass, descending.
SMILES,Insulin prom inh,Insulin prom inh cell count,RGS16-Gao,HSV replic up,HSV replic up primary fold,PKD1 kinase inh,GALR2 agonist
CN1CCN(CC(O)COc2ccc(C34CC5CC(CC(C5)C3)C4)cc2)CC1 (centres undefined),nt,nt,104,i,0.71,-7,nt
CCOC(=O)C1CCCN(CCC(=O)Nc2ccc3c(c2)CCC3)C1 (centres undefined),nt,nt,110,i,0.77,-13,-1.1
Cc1cc(C)n2nc(N)c(N=Nc3ccc(Cl)cc3)c2n1,15,135,97,i,0.89,-6,-0.3
CC1Cn2c(CCc3ccccc3)nnc2S1 (centres undefined),-61,169,105,i,0.88,-2,-1.1

# A different layout for some results above.
# The line under a structure holds: Insulin prom inh	Insulin prom inh cell count	RGS16-Gao	HSV replic up	HSV replic up primary fold	PKD1 kinase inh	GALR2 agonist
> COc1ccc(S(=O)(=O)N2CCOCC2)cc1NC(=O)CSc1nnc(C2CC2)n1N
  nt	nt	99	i	0.85	-3	nt
> O=C1OC(N2CCN(C(=O)c3ccco3)CC2)c2ccccc21 (centres undefined)
  36	118	107	i	1	-12	-1.8

# The results go on:
SMILES,Insulin prom inh,Insulin prom inh cell count,RGS16-Gao,HSV replic up,HSV replic up primary fold,PKD1 kinase inh,GALR2 agonist
Cc1nc(N2CCOCC2)nc(Oc2ccccc2F)c1[N+](=O)[O-],nt,nt,77,i,0.89,nt,nt
C=CCOc1ccc(C=Nc2cccc(Cl)c2)c(O)c1,15,125,106,i,0.96,0,-1.3
Cc1ccc(C(=O)Nc2ccc(S(=O)(=O)N3CCCC3)cc2)s1,nt,nt,100,i,0.86,0,nt
CCOc1ccc(CN(C)C(=O)CCl)cc1,nt,nt,99,i,1,-6,nt
Cc1cnc(C(=O)N2CCc3c([nH]c4ccccc34)C2c2ccc(F)cc2)cn1 (centres undefined),nt,nt,101,i,0.94,6,nt
COc1cccc(OC)c1C(=O)Nc1cccnc1,nt,nt,102,i,1,-5,nt
Cc1c(-c2nc(-c3ccncc3)no2)cccc1[N+](=O)[O-],nt,nt,93,i,1.1,nt,nt
O=C(NCCNS(=O)(=O)c1ccccc1)c1cc(OCC(F)(F)F)ccc1OCC(F)(F)F,-23,114,95,i,0.9,0,-1.0
CCS(=O)(=O)N1CCN(c2ccnc3cc(Cl)ccc23)CC1,nt,nt,101,i,1,nt,nt
COc1ccc(NC(=O)CNC(=O)c2ccc([N+](=O)[O-])cc2)cc1,nt,nt,98,i,0.96,-7,nt
COc1ccc(CCNC(=O)COc2ccc(N(C)S(=O)(=O)c3ccc(C)cc3)cc2)cc1,nt,nt,86,i,1,3,nt
CC(=O)Cc1nsc(Nc2ccccc2)n1,19,155,50,i,0.9,1,-3.1
CC1CCC(N(C(=O)c2csnn2)C(C(=O)NC(C)(C)C)c2cccnc2)CC1 (centres undefined),nt,nt,103,i,0.9,7,nt
Cc1cc(C(=O)NCc2ccc(F)cc2)n(-c2ccccc2)n1,nt,nt,99,i,0.83,nt,nt
Cc1cc(C(=O)N/N=C/c2ccc(N(C)C)cc2)c2ccccc2n1,-45,52,113,i,0.7,-4,nt
CCOc1ccccc1-c1nc(C(N)=O)c2[nH]c(=O)n(-c3ccccc3)c2n1,-29,111,96,i,0.95,-8,-1.7
COCCNC(=O)C(OC(=O)c1ccco1)c1ccccc1OC (centres undefined),-43,104,91,i,1,2,-1.9
CC(C)Cc1ccc(/C(=N/O)C(=O)O)s1,24,104,100,i,1,-13,-1.3
CCc1nnc(NC(=O)c2ccc(S(=O)(=O)N3CCCCCC3)cc2)s1,nt,nt,100,i,1,6,0.6
O=C(CC1C(=O)NCCN1Cc1ccc(Cl)c(F)c1)NCCc1cccnc1 (centres undefined),nt,nt,104,i,1.1,nt,nt
